# StopGo RLuc: Primary qHTS Assay for Foot and Mouth Disease Virus Antivirals against NCGC Sytravon and CBC Compound Libraries: Renilla Luciferase Signal | HEK cells with a luciferase reporter of 2A StopGo recoding | Potency, µM (doses to about 57.5 µM), for the others: at the highest dose signal change, negative = less light | hit rate 0.32% among 120,000; active means well fitted falling curve with a large enough effect; inconclusive means small, poorly fitted or top-dose-only effect; inactive means no such curve, though single readings can be large or run the other way; note: nearly all actives have a fitted effect of over 55% in size; overnight with compound
# 2A firefly: Primary qHTS Assay for Foot and Mouth Disease Virus Antivirals against NCGC Sytravon and CBC Compound Libraries: Firefly Luciferase Signal; HEK cells with a luciferase reporter of 2A StopGo recoding; Potency, µM (titrated, usually from 57.5 µM), for the others: at the top dose signal change, negative = less light; hit rate 0.23% among 120,000; AID 1745856, 2022; active = well fitted falling curve with a large enough effect; inconclusive = small, poorly fitted or top-dose-only effect; inactive = no such curve, though single readings can be large or run the other way; note: nearly all actives have a fitted effect of over 60% in size; overnight with compound
# The depositor's hits bear a star; ? = inconclusive; & = joins results of further samples; [ ] = remark or other dose. % is set by controls: 0 for no effect and ±100 for the full control effect; potency is the fitted concentration of half-maximal effect.
SMILES,StopGo RLuc,2A firefly
Cc1cc(C)nc(SCc2nc3cc(NC(=O)c4ccc(F)c(Cl)c4)ccc3n2C)n1,7.7%,55.2%[activator]
CC(=O)c1ccc(NC(=O)CSc2nc(-c3cccc(F)c3)nc3c2c(=O)n(C)c(=O)n3C)cc1,-14.0%,-1.3%
CC(NC(=O)c1ccc(SC(F)F)cc1)c1ccncc1 (stereo not given),?,-23.0%
Cc1ccccc1NC(=O)C1CCCC1,5.5%,13.1%
Cc1cccc(-n2nnnc2C2(Nc3ccccc3C)CCCC2)c1,92.1%[activator],12.8%
COc1ccc(NC(=O)CC2C(=O)N(c3ccccc3)C(=O)N2Cc2cccnc2)cc1 (stereo not given),3.1%,-3.8%
CCN(CC)S(=O)(=O)c1cccc(-c2nnc(SCc3ccc(Cl)cc3)n2N)c1,?,?
COCCCNc1nc2c(c(=O)n(C)c(=O)n2C)n1Cc1ccc(Cl)cc1,-3.2%,-4.8%
O=C(Nc1oc2ccccc2c(=O)c1-c1cccc(Cl)c1)c1cccs1,87.8%[activator],17.5%
Clc1ccc(-c2ccc(CNc3ncn[nH]3)o2)cc1,2.0%,104.9%[activator]
Cc1cccc(-c2c3c(nc4sc5c(c24)CCC(C)C5)C(C)CCC3)c1 (stereo not given),-4.8%,-2.0%
O=Cc1cc2ccccc2nc1Sc1ccc(Cl)cc1,-6.0%,-9.3%
CCOC(=O)C(=O)c1csc(NC=O)n1,-9.5%,-12.4%[11.5 µM]
CCCN1C(=O)C(=O)N(Cc2cc(=O)oc3cc(C)c(C)cc23)C1=O,24.8%,144.0%[activator]
CCCc1cc(=O)oc2cc(C)cc(OCC(=O)NCc3ccncc3)c12,26.8%,22.7%
O=C(NCC1(N2CCOCC2)CCCCC1)C1CCN(C(=O)c2ccc(Cl)cc2)CC1,-1.7%,3.1%
O=C(Nc1ccccc1)C(=O)c1cn(CC(=O)N2CCOCC2)c2ccccc12,14.0%,22.7%
COc1ccc(CNCCc2ccc(F)cc2)cc1,3.5%[1.06 µM],0.0%
COc1ccc(-c2nonc2NC(=O)COc2c(C)cccc2C)cc1,15.7%,0.3%
O=C(Nc1ccc(Cl)c(Cl)c1)N1CCC(c2ccccc2)C1 (stereo not given),30.7%[activator],117.9%[activator]

# Laid out differently: results already given.
SMILES	StopGo RLuc	2A firefly
CCOC(=O)C(=O)c1csc(NC=O)n1	-9.5%	-12.4%[11.5 µM]
CCCN1C(=O)C(=O)N(Cc2cc(=O)oc3cc(C)c(C)cc23)C1=O	24.8%	144.0%[activator]
CCCc1cc(=O)oc2cc(C)cc(OCC(=O)NCc3ccncc3)c12	26.8%	22.7%
O=C(NCC1(N2CCOCC2)CCCCC1)C1CCN(C(=O)c2ccc(Cl)cc2)CC1	-1.7%	3.1%

# Further records
SMILES,StopGo RLuc,2A firefly
O=C(NCc1ccccc1)C1CCN(S(=O)(=O)c2ccc3c(c2)CCCN3C(=O)C2CCC2)CC1,-3.1%,-21.5%
COc1ccc(-c2csc(NC(=O)c3ccccc3OCc3noc(C)n3)n2)cc1,-7.3%,13.6%
C=C(C)COc1ccc2c(=O)c(Oc3ccc(C(=O)OC)cc3)c(C)oc2c1,10.7%,43.5%[activator]
O=C(CCC1CCCC1)NCC1CN(Cc2ccccc2)CCO1 (stereo not given),-3.8%,-3.6%
O=C(CN1C(=O)c2cccc3cccc1c23)Nc1cccc(F)c1,68.8%[activator],88.4%[activator]
CC1CCc2noc(NC(=O)c3cc(=O)c4cc(Cl)ccc4o3)c2C1 (stereo not given),-4.6%,-0.6%
COc1ccccc1C(=O)NC(=O)CSc1c(Cl)cccc1Cl,-4.6%[1.06 µM],0.0%
C=CCOc1ccc(NC(=O)c2ccc(C(C)(C)C)cc2)cc1,-7.8%,0.0%
Cc1cc(C)c(NC(=O)c2cc3sc(Cl)cc3n2C)c(C)c1,0.8%,2.6%
O=C(Nc1ccc([N+](=O)[O-])cc1Cl)c1cc(Cl)ccc1O,?,84.1%[activator][27 µM]

# Another view of 3 compounds above:
# Below each SMILES – StopGo RLuc, 2A firefly
O=C(CCC1CCCC1)NCC1CN(Cc2ccccc2)CCO1 (stereo not given)
→ -3.8%, -3.6%
O=C(CN1C(=O)c2cccc3cccc1c23)Nc1cccc(F)c1
→ 68.8%[activator], 88.4%[activator]
CC1CCc2noc(NC(=O)c3cc(=O)c4cc(Cl)ccc4o3)c2C1 (stereo not given)
→ -4.6%, -0.6%

# Random excerpt: four compounds from above, in no set order.
SMILES,StopGo RLuc,2A firefly
O=C(Nc1ccc([N+](=O)[O-])cc1Cl)c1cc(Cl)ccc1O,?,84.1%[activator][27 µM]
COc1ccccc1C(=O)NC(=O)CSc1c(Cl)cccc1Cl,-4.6%[1.06 µM],0.0%
CC1CCc2noc(NC(=O)c3cc(=O)c4cc(Cl)ccc4o3)c2C1 (stereo not given),-4.6%,-0.6%
O=C(CCC1CCCC1)NCC1CN(Cc2ccccc2)CCO1 (stereo not given),-3.8%,-3.6%

# (more compounds)
SMILES,StopGo RLuc,2A firefly
CCSc1oc(-c2ccc(F)cc2)nc1S(=O)(=O)c1ccc(C)cc1,100.3%&-8.9%[activator],-0.4%&-16.0%
CCc1cccc(NC(=O)CCC(=O)N2CCSc3ccccc32)c1,?,-13.2%
Cc1ccc(C(=O)NC2CCN(CCOC(C)C)CC2)s1,-1.9%,-3.5%
Fc1ccc(-c2ccc(CNC3CN4CCC3CC4)o2)cc1Cl (stereo not given),-14.6%,-3.1%
CCn1c(SCC(=O)c2cc(C)n(C(C)C)c2C)nc2cc(S(N)(=O)=O)ccc21,4.0%,31.3%[activator]
O=C(CSc1nc2ccccc2nc1Cc1ccccc1)Nc1ccc2c(c1)OCO2,2.3%,-17.9%
Cc1ccc2nc(/C(C#N)=C\c3ccc(C)s3)[nH]c2c1,48.8%[activator],170.9%[activator]
Cc1onc(-c2ccccc2Cl)c1C(=O)Nc1cccc(C(=O)NC2CC2)c1,?,?
Cc1nc(NC(=O)COc2cccc3ccccc23)sc1C,?,-5.3%
Cc1cc(=O)n2[nH]c(NCc3ccc(F)cc3)nc2n1,-16.5%,0.0%
CCOC(=O)c1c(C)[nH]c(CCC(=O)Nc2ccccc2C(=O)OC)c1C,0.9%,-5.8%
CCC(C(=O)Nc1cccc(Cl)c1)n1nc(-c2ccc(C)cc2)ccc1=O (stereo not given),17.8%,-2.5%
COc1cccc(-c2nc(S(=O)(=O)c3ccc4c(c3)OCCO4)c(N3CCOCC3)o2)c1,140.4%[activator],-6.4%
O=C(COc1ccc(-c2ccccc2)cc1Cl)c1ccc[nH]1,20.3%,75.3%[activator]
CCN1CCN(c2cc(C)c3cc(NC(=O)c4cc(Br)ccc4Cl)ccc3n2)CC1,-8.1%,-16.4%
O=C(Nc1ncn(Cc2ccccc2F)n1)c1ccn(COc2ccc(Cl)cc2)n1,-12.9%,-2.0%
O=C(N/N=C/c1ccc(Cl)cc1)C1CC1,1.0%,106.4%[activator]
COc1ccc2nc(N(Cc3cccnc3)C(=O)C3COc4ccccc4O3)sc2c1 (stereo not given),8.6%,31.6%[activator]
Cc1cccc(NC2=NC(c3cccnc3)n3c(nc(C)cc3=O)N2)c1 (stereo not given),-21.3%,-8.2%
CCCCC(CC)C(=O)Nc1cccc(CC)c1 (stereo not given),29.1%,11.4%
CCNC(=O)NC(=O)CN(C)Cc1cccc(C#N)c1,-1.8%,0.9%
CN1C2CCC(C)(C)C1CC(OC(=O)C(O)(c1cccs1)c1cccs1)C2 (stereo not given),-10.4%,-22.0%
COc1ccc2cc(S(=O)(=O)c3ccccc3F)c(=O)oc2c1,-30.4%,-15.7%
Cc1cc2nc(-c3cccc(NC(=O)c4cccnc4)c3C)oc2cc1C,16.1%,142.8%[activator]
CC(C)CCNC(=O)C1CCN(C(=O)c2cc3sccc3n2Cc2ccc(Cl)cc2)CC1,19.3%,12.5%
COc1ccc(-c2c(C)c3ccc(O)c(CN4CCN(CCO)CC4)c3oc2=O)cc1OC,-9.8%,-11.6%
COc1ccc(NC(=O)c2ccc(Br)o2)cc1NC(=O)c1ccccc1C,144.2%[activator],0.0%
COc1ccc(S(=O)(=O)Oc2ccc3c(c2)O/C(=C\c2cc(OC)c(OC)cc2OC)C3=O)cc1,0.6%,-0.5%
COc1cc(NC(=O)Cn2cnc3c(sc4ncccc43)c2=O)cc(OC)c1OC,-11.8%,-2.6%
Clc1ccccc1-c1nnc(-c2ccccc2CNc2ccc(Br)cc2)o1,-16.9%,38.4%[activator]

# Profiles from above:
# COc1ccc(S(=O)(=O)Oc2ccc3c(c2)O/C(=C\c2cc(OC)c(OC)cc2OC)C3=O)cc1 is listed with StopGo RLuc = 0.6%; 2A firefly = -0.5%
# Clc1ccccc1-c1nnc(-c2ccccc2CNc2ccc(Br)cc2)o1 is listed with StopGo RLuc = -16.9%; 2A firefly = 38.4%[activator]

# (continued)
SMILES,StopGo RLuc,2A firefly
Cc1ccc(C)c(S(=O)(=O)NCC(c2ccc(N(C)C)cc2)N2CCOCC2)c1 (stereo not given),194.7%[activator],-15.6%
O=C(NCc1ccccc1Cl)c1cc2c(s1)-c1ccccc1SC2,73.6%[activator],4.9%
CCc1nn(CC(=O)N2CCN(c3ccc(OC)cc3)CC2)c(=O)c2cc3sccc3n12,-19.6%,-3.4%
COc1cccc(CNc2ncnc3onc(-c4ccc(F)cc4)c23)c1,-13.3%,-13.2%
COC(=O)c1c(NC(=O)c2ccncc2)sc(C(=O)Nc2ccccc2)c1C,7.9%,174.0%[activator]
Cc1nc2nc(SCC(=O)NCCc3ccc(Cl)cc3)nn2c(C)c1Cc1c(F)cccc1Cl,-9.6%,-9.7%
Cc1ccc(C)n1-c1nnc(N2CCCC(C(=O)NCc3ccc(F)cc3)C2)s1 (stereo not given),0.0%,0.0%
COc1ccccc1C(=O)Nc1ccc(C(=O)OCc2cc(=O)n3c4c(sc3n2)CCCC4)cc1,-11.6%,-15.3%
CCc1ccc(NC(=O)Cn2c(=O)oc3cc(S(=O)(=O)NCc4ccccc4)ccc32)cc1,154.6%[activator],-11.2%
Cn1c(=O)[nH]c(=O)c2c1nc(SCC(=O)c1ccccc1)n2Cc1ccccc1,3.9%,24.9%
Cc1oc(-c2ccc(C(=O)NCCC(C)C)cc2)nc1CN1CCc2ccccc21,?,?
Cc1cc2oc(C(=O)Nc3sc4c(c3C#N)CCCC4)cc(=O)c2cc1Cl,-13.4%,-10.6%
O=C(/C=C/NC12CC3CC(CC(C3)C1)C2)C(F)(F)F,1.0%,20.4%
CCc1ccc(NC(=O)c2nc3ccccc3nc2N2CCOCC2)cc1,31.4%[activator],23.2%
COc1ccc(C(=O)NCc2ccc3c(c2)CCN3C(=O)c2ccc(F)cc2)cc1,?,-32.5%
COC(=O)c1cc(OC(=O)Cc2ccc(Cl)cc2)cc(C(=O)OC)c1,-2.5%,13.0%
COc1ccc(CCNC(=O)C(C)n2c(=O)cc(C(F)(F)F)c3c(C)nn(C)c32)cc1OC (stereo not given),-11.3%,-6.9%
COc1ccc(Cn2c(=O)[nH]c3cc(C(=O)N4CCN(c5cc(C)ccc5C)CC4)ccc3c2=O)cc1,-11.1%,6.3%
CN(Cc1ccccc1)S(=O)(=O)c1ccc2c(c1)NC(=O)CS2,-34.5%,?
Cc1ccccc1OCCn1c(-c2ccc(Cl)cc2)nc2ccccc2c1=O,-11.6%,-15.6%
Cc1nc2nc(NCc3ccc(Cl)cc3)[nH]n2c(=O)c1CCC(=O)Nc1ccc2ccccc2c1,-11.3%,5.0%
O=c1[nH]c2ccccc2c(-c2ccccc2)c1Sc1nc2ccccc2o1,193.7%[activator],4.4%
O=C(CNC(=O)c1ccccc1)OCc1cc(=O)oc2cc(O)ccc12,-10.9%,6.0%
FC(F)(F)c1cnc(Sc2ncc(C(F)(F)F)cc2Cl)c(Cl)c1,-13.5%,-6.3%
COc1ccc(-c2nc3cc(NC(=O)CC(C)C)ccc3o2)cc1OC,36.7%[activator],42.1%[activator]
C=CCN1[C@H](CC(C)C)COc2cc(N3CCCC3)ccc2S1(=O)=O,96.6%[activator],33.5%[activator]
COc1ccccc1C1=NN(C(=O)C(C)C)C(c2ccc3nccnc3c2)C1 (stereo not given),-2.6%,0.0%
O=C(CSc1nc2ccccc2o1)Nc1cc(C(F)(F)F)cc(C(F)(F)F)c1,?,?
Cc1cccc(CN2CCC(CNC(=O)c3cccc4c3SCCC4=O)CC2)c1,-14.7%,-5.8%
COc1ccccc1Nc1nnc(-c2cc3cccc(OC)c3oc2=O)s1,-1.8%,189.0%[activator]
Cc1cc(C)n2nc(SC(C)C(=O)Nc3cc(Cl)ccc3Cl)nc2n1 (stereo not given),-4.1%,0.8%
N#Cc1cccc(CN2CCCc3ccccc32)c1,6.4%,0.0%
O=S(=O)(NC1CCN(S(=O)(=O)c2ccc(C(F)(F)F)cc2)CC1)c1cccs1,12.6%,-1.3%
Cn1c(=O)c2c(nc(N3CCN(Cc4ccccc4)CC3)n2CC(=O)c2ccccc2)n(C)c1=O,-9.3%,-1.6%
O=C(O)c1ccc(Cc2ccc(C(=O)O)o2)o1,16.3%,4.2%
O=C(NCc1ccccc1Cl)c1nnc(Cc2ccc(Cl)cc2)o1,-3.8%,6.6%

# Screens (PubChem BioAssay)

# These rows are one share of the data (hit frequency here may not be typical).
